GLA inh pH 4.5 – qHTS Assay for Inhibitors of Human alpha-Galactosidase at pH 4.5; activity change, negative = inhibition, % at 105 µM; purified enzyme, 4-MU-alpha-Gal fluorescence, pH 4.5; AID 1467, 2008; 230,000 tested, under 10 active; inconclusive = small, poorly fitted or top-dose-only inhibition, or a rising curve; inactive = flat fitted curve, though single readings scatter; no compound was filed as active;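 note: 0% = full activity with enzyme and -100% = basal without enzyme; dose as in the result columns while the protocol names 77 µM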
Rango-impB inh – qHTS Assay for Inhibitors of Rango (Ran-regulated importin-beta cargo) - Importin beta complex formation; Rango CFP/YFP FRET sensor + importin beta, 45 min; Importin subunit beta-1 (Homo sapiens), Q14974; AID 540263, 2011; actives 0.031% (n = 340,000); Potency, µM (titrated, usually from 92.2 µM), inactives show at the highest dose inhibition of complex formation; active = rising FRET ratio curve, often small or poorly fitted; inconclusive = mostly compound fluorescence or quenching in the first reads; inactive = flat curves in all reads;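 note: potency is the fitted concentration of half-maximal effect; 0% = DMSO wells and 100% = buffer wells lacking importin beta; nearly all actives have a fitted effect of over 15% in size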
Target sequence (Q14974 whole entry, looked up): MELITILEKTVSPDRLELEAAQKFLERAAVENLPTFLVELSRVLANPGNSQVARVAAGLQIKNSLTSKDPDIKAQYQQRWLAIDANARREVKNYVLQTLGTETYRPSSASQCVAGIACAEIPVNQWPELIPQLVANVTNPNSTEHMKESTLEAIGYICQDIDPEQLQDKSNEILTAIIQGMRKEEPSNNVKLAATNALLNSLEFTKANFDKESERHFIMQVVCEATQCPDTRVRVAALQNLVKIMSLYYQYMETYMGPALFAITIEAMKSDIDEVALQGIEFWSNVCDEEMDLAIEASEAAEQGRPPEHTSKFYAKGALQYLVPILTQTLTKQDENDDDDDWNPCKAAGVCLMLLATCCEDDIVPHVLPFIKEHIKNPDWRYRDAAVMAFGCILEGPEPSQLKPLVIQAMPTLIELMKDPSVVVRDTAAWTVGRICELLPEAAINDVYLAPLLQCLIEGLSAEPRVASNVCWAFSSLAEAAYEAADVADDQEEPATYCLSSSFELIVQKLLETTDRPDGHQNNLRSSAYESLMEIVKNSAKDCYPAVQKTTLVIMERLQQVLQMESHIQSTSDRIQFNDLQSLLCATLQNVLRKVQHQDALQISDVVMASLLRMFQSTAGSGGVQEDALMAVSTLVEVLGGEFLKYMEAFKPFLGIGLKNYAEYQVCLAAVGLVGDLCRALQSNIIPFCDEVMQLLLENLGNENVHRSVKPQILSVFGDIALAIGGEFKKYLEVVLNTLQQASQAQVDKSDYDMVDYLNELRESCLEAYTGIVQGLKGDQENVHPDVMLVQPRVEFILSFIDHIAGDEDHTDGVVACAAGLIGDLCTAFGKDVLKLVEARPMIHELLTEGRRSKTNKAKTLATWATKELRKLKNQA
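FRET biosensor Rango (snurportin 1 IBB between N-terminal EYFP and C-terminal Cerulean), 50 nM in PBS/1 mM DTT/0.02% Tween-20/0.1% BSA, preincubated 5 min RT with compound; 0.125 microM importin beta added, 45 min RT, CFP/YFP FRET ratio read.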
miR-21 reporter – qHTS Assay for Modulators of miRNAs and/orActivators of miR-21 | HeLa miR-21 FLuc reporter, luciferase, 48 h | Potency, µM (titrated, usually from 38.3 µM), without a hit: at the highest dose reporter change, positive = more light | 340,000 tested, under 10 active; active = well fitted rising curve with a large enough effect; inconclusive = small, poorly fitted or top-dose-only effect; inactive = no such curve, though single readings can be large or run the other way;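 note: % of control where 0% means no effect; miR-21 action dims this reporter so a rising signal means less miR-21 action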
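HeLa cells endogenously expressing miR-21, stably carrying CMV-driven firefly luciferase with a downstream miR-21 binding site, 2000 cells/well. Titrations up to approximately 40 uM, 48 hours; luciferase luminescence read.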
Rango release inh – qHTS Assay for Inhibitors of RanGTP induced Rango (Ran-regulated importin-beta cargo) - Importin beta complex dissociation; Snurportin-1 (Homo sapiens) + GTP-binding nuclear protein Ran (Homo sapiens) + Importin …; Biochemical FRET Rango-importin beta, RanGTP-induced dissociation; Potency, µM (top dose mostly 46.1 µM), for the others: top-dose activity change, negative = inhibition; actives 0.071% (n = 340,000); AID 540253, 2011; active means falling FRET ratio curve, often poorly fitted, with flat reads before Ran was added; inconclusive means other falling curves, or compound fluorescence or quenching; inactive means flat or rising ratio curve;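 note: potency is the fitted concentration of half-maximal effect; % of control where 0% means no effect; nearly all actives have a fitted effect of over 45% in size; -100% = wells without RanGTP and RCC1; the record marks most hits as doubtful in a second field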
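FRET read at 45 min, room temperature: inhibitors block the CFP/YFP signal rise when RanGTP (0.6 uM Ran, 2 mM GTP, 0.2 uM RCC1) frees Rango (0.1 uM) from importin beta (0.25 uM). Pre-read after 5 min compound exposure flags interference.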
The depositor's hits bear a star; ? = inconclusive; . = no result given. This is a subset, so the mix of outcomes need not match the whole.

Rango release inh	Rango-impB inh	GLA inh pH 4.5	mol	miR-21 reporter
6.8%	1.5%	.	CCc1ccc(S(=O)(=O)Nc2ccc(O)c3ccccc23)cc1	26.1%
3.6%	6.2%	3.6	Cc1noc(C)c1C(=O)OCC(=O)NC(c1ccccc1)c1ccccc1	-11.2%
-16.5%	0.0%	0.0	Cc1ccc(CNC(=O)CCC(=O)c2cccs2)cc1	-2.2%
15.7%	2.0%	.	CC(C)N(CCO)Cc1nc(C(c2ccccc2)c2ccccc2)no1	-4.9%
1.2%	-2.3%	-4.0	CCOC(=O)c1nc(C)sc1-c1ccnn1S(=O)(=O)c1ccc(Cl)cc1Cl	-2.0%
-9.9%	-2.3%	.	O=C(Nc1cccc2[nH]ncc12)NS(=O)(=O)c1ccccc1	-0.9%
0.1%	0.0%	.	CC(=O)C1(O)C(C)CC2C3CC=C4CC(O)CCC4(C)C3CCC21C (stereo not given)	.
-2.8%	5.4%	.	COc1cccc(C2C(C(C)=O)=C(C)Nc3ncnn32)c1 (stereo not given)	0.0%
?	?	.	COc1ccc2c(c1)CCNC2Cc1ccc(OC)c(O)c1 (stereo not given)	.
-4.5%	3.0%	-2.9	CCCc1ccc(C(=O)N2CCN(c3ccccc3OCC)CC2)cc1	-0.2%
1.8%	1.3%	.	COc1ccc(NC(=O)c2c(C)nn(Cc3ccccc3)c2C)cc1S(=O)(=O)N(C)C	3.7%
13.1%	1.2%	0.3	CCOC(=O)C(=NCCCN(C)C)NNc1cc(C(F)(F)F)ccc1Cl	-7.4%

The listing continues:
Rango release inh	Rango-impB inh	GLA inh pH 4.5	mol	miR-21 reporter
1.9%	-1.3%	.	CCc1c(C)nc(N)n2c(SCC(=O)NC3CCCCC3)nnc12	2.1%
8.8%	0.9%	-4.8	CCS(=O)(=O)N1Cc2ccccc2CC1C(=O)Nc1nnc(C2CC2)s1 (stereo not given)	2.1%
8.8%	-4.2%	-4.1	Nc1nc(-c2ccc3c(c2)CCC(=O)N3)cs1	-36.4%
9.9%	3.6%	1.2	Cc1ccc(-c2nn3c(C)nnc3s2)cc1NC(=O)c1ccc(-c2cccc(Cl)c2)o1	-14.3%
1.9%	-0.9%	-3.9	Cc1cc(C(=O)N2CCN(C/C=C/c3ccccc3)CC2)cs1	-3.8%
?	?	.	N#CC1=C(N)Oc2cc(N)ccc2C1c1cccc(Br)c1 (stereo not given)	13.4%
-6.6%	2.4%	-6.1	CCOC(=O)c1ccc(S(=O)(=O)Nc2nc3cc(S(=O)(=O)NC4=NCCCCC4)ccc3s2)cc1	-3.7%
6.9%	-0.1%	7.3	O=C(NCCc1ccc(Cl)cc1)C1CCC(CNc2c(N3CCCCC3)c(=O)c2=O)CC1 (stereo not given)	0.5%
-4.8%	0.1%	6.0	CCc1ccc2[nH]c3nc(SCc4nnc(-c5ccc(C)cc5)o4)nnc3c2c1	2.2%
3.9%	4.7%	-2.5	CN(NS(=O)(=O)c1ccc(Cl)cc1)c1ncc(C(F)(F)F)cc1Cl	1.4%
14.9%	-2.8%	.	CCOc1cccc(CN(CC)CC2CCCN(CCc3cccc(OC)c3)C2)c1O (stereo not given)	2.0%
4.1%	3.6%	-6.4	Cc1ccc(NC(=O)Cn2sc3nc(C)cc(C)c3c2=O)c(Cl)c1	-0.3%

More structures follow:
Rango release inh	Rango-impB inh	GLA inh pH 4.5	mol	miR-21 reporter
-13.3%	1.9%	.	Cc1cccc(C(=O)Nc2nnc(SCC(=O)NC3CC3)s2)c1	-12.4%
2.6%	3.6%	-0.1	COc1ccc(S(=O)(=O)NCC2CCCN(Cc3ccc(C)o3)C2)cc1 (stereo not given)	-0.7%
24.4%	2.6%	.	O=[N+]([O-])c1ccc(N2CCN(c3ccc(F)cc3)CC2)cc1	-17.4%
-23.5%	-2.8%	-1.6	Cc1nc([N+](=O)[O-])c(Sc2nc3ccccc3n2C)n1Cc1ccccc1	?
0.6%	-8.3%	-8.0	NS(=O)(=O)c1ccc(CCNC(=O)C2CCCCN2S(=O)(=O)c2ccccc2)cc1 (stereo not given)	-3.7%
-4.0%	3.4%	.	CCN(CC(=O)Nc1cccc(OC)c1)C(=O)c1ccco1	-0.3%
8.2%	2.0%	0.2	COc1ccccc1N1CC(C(=O)Nc2cccc(C(=O)O)c2)CC1=O (stereo not given)	0.9%
0.8%	0.4%	5.8	CCN(CC)S(=O)(=O)c1cccc(NC(=O)COC(=O)c2ccc(Br)o2)c1	9.5%
-14.4%	1.7%	2.9	CCOc1ccc(N2C(=O)C3C(c4ccc(O)cc4)NC(CCSC)(C(=O)OC)C3C2=O)cc1 (stereo not given)	-0.5%
-7.2%	0.7%	-2.1	O=C(C1CCCO1)N1N=C(c2ccc(Br)cc2)CC1c1ccco1 (stereo not given)	-13.3%
0.6%	0.3%	4.0	O=C(O)C1C2C=CC(C2)C1C(=O)NCCC1=CCCCC1 (stereo not given)	-2.2%
4.9%	6.6%	0.0	O=C(NC(Cc1c[nH]c2ccccc12)C(=O)N/N=C/c1ccc(Br)cc1)c1cccs1 (stereo not given)	6.1%

Further compounds.
Rango release inh	Rango-impB inh	GLA inh pH 4.5	mol	miR-21 reporter
8.4%	?	-7.1	Cc1nn(-c2ccc(F)cc2)c(Cl)c1/C=N/NC(=O)c1ccc(O)cc1	-52.9%
17.9%	-3.8%	5.0	Cn1c(C(=O)O)ccc1S(=O)(=O)N(Cc1ccccc1)Cc1ccccc1	-1.8%
9.5%	-12.5%	.	O=C(CSc1n[nH]c(-c2ccncc2)n1)Nc1ccc(Cl)c(C(=O)O)c1	-0.4%
-8.5%	?	-18.8	COCCSc1ccccc1C(=O)N1CCN(c2ccccc2)CC1	-7.4%
8.7%	-1.9%	.	COc1ccc(C=CC(O)CCN2CCC3CCC(C3)C2)cc1 (stereo not given)	.
-9.5%	5.8%	-3.0	CCCCC(=O)Nc1ccc(C)c(O)c1	-32.2%
3.2%	?	-2.3	COc1cccc(C2CC(c3c(-c4ccccc4)c4cc(Cl)ccc4[nH]c3=O)=NN2S(C)(=O)=O)c1OC (stereo not given)	?
-10.0%	?	4.4	Cc1cccc(OCCSc2nc3ncnc(N)c3[nH]2)c1	-19.2%
-2.1%	-1.3%	.	COc1ccc(CCOC2OC(CO)C(OC(=O)/C=C/c3ccc(O)c(OC)c3)C(O[C@H]3O[C@@H](C)[C@H](O)[C@@H](O)[C@H]3O)C2O)cc1O (stereo not given in full)	.
-4.3%	-4.2%	-6.1	CCCCOc1ccc(-c2ncc(C(=O)OCC)c(N)n2)cc1	-21.9%
2.2%	-4.2%	6.2	COC(=O)C1=COC(OC2OC(CO)C(O)C(O)C2O)C2C1C=CC2(O)CO (stereo not given)	-0.2%
7.4%	-2.9%	?	O=C(c1cc2c(s1)-c1ccccc1OC2)N1CCc2ccccc2C1	-56.9%

Going on with the list.
Rango release inh	Rango-impB inh	GLA inh pH 4.5	mol	miR-21 reporter
-6.5%	?	.	COc1ccc(OCc2cc(C(=O)N(C)C(C)c3ccon3)no2)c(Cl)c1 (stereo not given)	-48.7%
1.6%	2.8%	.	Cc1cc(NC(=O)COC(=O)CC2CCCC2)c([N+](=O)[O-])cc1C	-13.4%
0.9%	-1.5%	5.0	Cc1ccc(NC(=O)CCC(=O)NCCO)cc1	-0.2%
6.0%	-0.5%	.	Cc1ccsc1C(=O)Nc1cc(Cl)ccc1-n1cncn1	.
-2.2%	-1.7%	4.8	OCC1OC(n2cnc3c(NCc4ccco4)ncnc32)C(O)C1O (stereo not given)	.
51.1%	-1.9%	.	COc1cccc(OC)c1OC(=O)C1CC(=O)N(c2ccc3c(c2)OCCO3)C1 (stereo not given)	.
0.1%	-0.1%	-6.8	CCCCSc1nnc(-c2ccccc2)c2ccccc12	-15.9%
15.5%	-3.8%	3.9	Cc1c2cnn(-c3ccccc3)c(=O)c2c(C)n1CCCC(=O)N1CCN(c2ncccn2)CC1	12.6%
2.3%	0.9%	-2.2	Cc1nc(S(=O)(=O)Cc2ccc(Cl)cc2)nc2c1CCC2	-2.4%
-7.7%	?	0.0	Cc1cc2nc(-c3ccc4c(c3)CCC4)ccn2n1	-29.9%
-2.3%	-7.5%	-9.3	Nc1nc(Nc2ccccc2F)nc(NCc2ccco2)c1[N+](=O)[O-]	-57.1%
8.9%	1.8%	1.6	CCOC(=O)C1(CCCc2ccccc2)CCN(C(=O)CCC2=NNC(=O)CC2)CC1	-6.4%

Following part.
Rango release inh	Rango-impB inh	GLA inh pH 4.5	mol	miR-21 reporter
-2.9%	1.0%	.	Nc1cc(S(=O)(=O)N2CCOCC2)ccc1Oc1cccc(Br)c1	.
7.9%	3.2%	.	NC(=O)CC(NC(=O)c1ccccc1)C(=O)O (stereo not given)	.
-8.9%	0.4%	-0.6	Cc1c(NC(=O)C(C)NCC2CCCO2)c(=O)n(-c2ccccc2)n1C (stereo not given)	-6.0%
0.6%	0.6%	1.0	Cc1ccc(-n2cccc2C(=O)NS(=O)(=O)c2ccc(C)cc2)cc1	0.5%
0.3%	2.3%	.	CC(C)NC(=O)N(C)C[C@H]1Oc2c(NC(=O)Nc3ccc4c(c3)OCO4)cccc2C(=O)N([C@H](C)CO)C[C@@H]1C	.
26.8%	-1.2%	-0.7	COc1ccc(O[C@@H]2O[C@H](COC(C)=O)[C@@H](OC(C)=O)[C@H](OC(C)=O)[C@H]2NC(C)=O)cc1	-5.3%
9.0%	-0.8%	5.8	COc1ccc(/C=N/NC(=O)c2ccc3nc[nH]c3c2)cc1OC	13.5%
-10.9%	3.1%	.	Cc1occc1C(=O)N1CCCC(CO)(Cc2ccc(F)cc2F)C1 (stereo not given)	0.1%
8.2%	-1.1%	-16.3	O=C(CCSc1nc(-c2ccco2)cc(C(F)(F)F)n1)N1CCN(c2ccccc2)CC1	-5.1%
-8.2%	4.6%	3.0	COc1ccc(Nc2ccccc2N)cc1	7.1%
-2.1%	0.4%	.	C=CCN(c1ccccc1)S(=O)(=O)c1cccc(C(=O)Nc2ncccc2O)c1	.
2.3%	1.1%	7.9	Cc1ccc(O)c(-c2cc(C(=O)Nc3c(C)n(C)n(-c4ccccc4)c3=O)[nH]n2)c1	-0.4%

Shown in markdown: entries from further up
| SMILES | Rango release inh | Rango-impB inh | GLA inh pH 4.5 | miR-21 reporter |
| --- | --- | --- | --- | --- |
| Nc1cc(S(=O)(=O)N2CCOCC2)ccc1Oc1cccc(Br)c1 | -2.9% | 1.0% | . | . |
| NC(=O)CC(NC(=O)c1ccccc1)C(=O)O (stereo not given) | 7.9% | 3.2% | . | . |
| Cc1c(NC(=O)C(C)NCC2CCCO2)c(=O)n(-c2ccccc2)n1C (stereo not given) | -8.9% | 0.4% | -0.6 | -6.0% |
| Cc1ccc(-n2cccc2C(=O)NS(=O)(=O)c2ccc(C)cc2)cc1 | 0.6% | 0.6% | 1.0 | 0.5% |
| CC(C)NC(=O)N(C)C[C@H]1Oc2c(NC(=O)Nc3ccc4c(c3)OCO4)cccc2C(=O)N([C@H](C)CO)C[C@@H]1C | 0.3% | 2.3% | . | . |

Next results follow:
Rango release inh	Rango-impB inh	GLA inh pH 4.5	mol	miR-21 reporter
33.6%	-4.4%	4.3	Cc1csc(Sc2nc3c(c(=O)[nH]c(=O)n3C)n2Cc2ccccc2Cl)n1	-6.6%
0.8%	-2.6%	-1.6	CC1(c2ccccc2Cl)NC(=O)N(CC(=O)NCc2ccco2)C1=O (stereo not given)	-0.7%
2.9%	-0.6%	-3.7	CN(C)S(=O)(=O)N(CC(=O)Nc1ccccc1F)c1ccccc1	-3.8%
-10.3%	2.5%	.	COc1ccc(S(=O)(=O)N2CCN(C(=O)c3cccnc3)CC2)cc1OC	-4.1%
-7.9%	5.9%	.	CCOc1ccc2nc(-c3ccccc3)nc(SCC(=O)OC)c2c1	-3.4%
-1.0%	5.3%	.	Cc1coc2c1c(C)cc1oc(=O)c(CC(=O)NCC(=O)NCC(=O)O)c(C)c12	0.8%
1.0%	2.5%	3.1	C/C(N)=C(/C#N)C(=O)CSc1nc2cc(Cl)ccc2c(=O)n1Cc1ccco1	1.5%
1.0%	4.6%	-9.7	CCc1c(C)[nH]c(=S)c(C#N)c1C	-9.5%
